Assay outcomes deposited in PubChem by several laboratories.
Calb FLC = C. albicans growth modulation with fluconazole; C. albicans CaCi-2 (fluconazole-resistant clinical isolate) + fluconazole, Alamar Blue growth, 48 h; growth inhibition, % (no concentration beside the values); hit rate 0.57% among 300,000;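 active = most replicates above 75%; inconclusive = exactly half above 75%; inactive = most below 75%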;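 also: all wells also contain fluconazole at 8 µg/ml as a sub-toxic cotreatment; 0% = median of DMSO wells and 100% = median of geldanamycin control wells; wells of about 8 µL received 7.5 nL stock; the first replicate is given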
LANA-H2B inh = blocks KSHV LANA binding to histone H2A/H2B; cell-free LANA-H2A/H2B peptide, fluorescence polarization; inhibition, % (test concentration not listed); hit rate 0.6% among 320,000; AID 2629; in the data active = inhibition mostly above about 10%, no sharp cut-off; inactive = mostly below about 6.7%;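 also: stock transfer was 7.5 nL into about 10 µL; 0% = median of vehicle wells and 100% = median of positive control wells; one replicate is shown; the record names a cut of 25% in any replicate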
B2AR ag = human beta-2 adrenergic receptor agonism by FAP | response, % (no concentration beside the values) | hit rate 0.43% among 340,000 | AID 504454 | P07550 | Am2.2-beta2AR cells, FAP receptor internalization, flow cytometry; reference of the scale not given here;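 active = response above a set limit, near 3 SD of response in nonfluorescent compounds, cut at about 42% in these data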;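 also: stock transfer was 100 nL into about 11 µL; a reference agonist was the positive control; negative values mostly stem from fluorescent compounds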
Target sequence (P07550 whole entry, looked up): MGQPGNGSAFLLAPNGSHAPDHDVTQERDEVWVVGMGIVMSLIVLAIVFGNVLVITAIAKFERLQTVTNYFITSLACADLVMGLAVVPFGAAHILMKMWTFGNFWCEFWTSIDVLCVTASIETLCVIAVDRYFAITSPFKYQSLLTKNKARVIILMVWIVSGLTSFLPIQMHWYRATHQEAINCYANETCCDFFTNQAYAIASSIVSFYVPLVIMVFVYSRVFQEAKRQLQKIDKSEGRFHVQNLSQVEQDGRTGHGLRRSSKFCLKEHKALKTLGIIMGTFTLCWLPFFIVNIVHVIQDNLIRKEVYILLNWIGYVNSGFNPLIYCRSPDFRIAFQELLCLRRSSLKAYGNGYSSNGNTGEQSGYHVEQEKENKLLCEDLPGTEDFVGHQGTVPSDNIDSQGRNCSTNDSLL
UCH37 inh = human UCH37 deubiquitinating enzyme inhibition | Q9Y5K5 | purified proteasome/UCH37, Ub-AMC cleavage fluorescence | inhibition, % (no concentration beside the values) | hit rate 0.33% among 330,000;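 active = mean of two replicates above 20%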;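 also: 0% = compound-free wells with enzyme and 100% = wells lacking proteasome; stock transfer was 100 nL into about 20 µL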
Target sequence (Q9Y5K5 whole entry, looked up): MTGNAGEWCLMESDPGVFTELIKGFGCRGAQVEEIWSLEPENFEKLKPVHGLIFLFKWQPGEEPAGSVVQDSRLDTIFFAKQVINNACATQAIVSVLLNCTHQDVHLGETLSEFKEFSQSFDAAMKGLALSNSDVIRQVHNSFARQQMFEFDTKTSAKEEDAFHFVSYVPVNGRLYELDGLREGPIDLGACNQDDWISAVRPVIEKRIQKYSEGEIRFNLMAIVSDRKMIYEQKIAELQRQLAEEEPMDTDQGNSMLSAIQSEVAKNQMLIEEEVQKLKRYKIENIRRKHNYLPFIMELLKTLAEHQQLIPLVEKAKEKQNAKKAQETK
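Material: Human UCH37 enzyme supplied as purified proteasome complex | Schedule: 30 min compound-proteasome preincubation then 25 min substrate reaction, room temperature | Detection: AMC fluorescence from Ub-AMC cleavage, excitation 355 nm, emission 460 nm | Benchmarks: Wells without proteasome as full block, compound-free enzyme plus substrate as uninhibited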
T cruzi inh = T. cruzi replication inhibition. hit rate 1.4% among 300,000. inhibition, % (test concentration not listed). T. cruzi beta-gal in NIH3T3, luminescence, 90 h;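 active = mean inhibition across valid replicates above about 55%, limit read from the data; inconclusive = mean below that limit but half or more replicates reach it; inactive = mean below it, under half of replicates reach it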;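 also: signal also drops with host cell toxicity which is not excluded here; 0% = plate median of DMSO wells and 100% = zero luminescence signal; higher percent means less beta-gal luminescence so fewer parasites; stock transfer was 50 nL into about 50 µL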
A1 inh = inhibitors of the anti-apoptotic protein A1, read as caspase activation; MEF A1-2A-BIM cells, Caspase-Glo 3/7 luminescence, 3 h; percent of clofoctol response, vehicle zero; caspase activation, % (test concentration not listed); hit rate 0.066% among 330,000;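 active = over half of replicate activation scores above 10%, or exactly half above 10 with the replicate mean above 10; inconclusive = replicate mean below 10 yet half the replicates above 10; inactive = over half of replicates below 10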;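 also: wells of about 30 µL received 50 nL stock; many hits fall short of the cut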
Beta apoptosis = beta cell apoptosis inhibition. AID 435005. protection from apoptosis, % (concentration not given with the values). hit rate 0.8% among 300,000. INS-1E cytokine-induced death, ATP luminescence, 48 h; percent of positive-control rescue, neutral wells zero;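 active = all replicates at 75% or more, or half of them and the mean; inconclusive = half reach 75% but not the mean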;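 also: 0% = cytokine-treated negative control wells and 100% = positive control rescue; higher means more ATP so stronger rescue from cytokine killing; wells of about 40 µL received 100 nL stock; the first replicate is given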
RanGTP-Impb inh = disruptors of Ran-importin-beta complex formation – biochemical, FRET, CFP-Ran, YFP-importin-beta, homogeneous, primary screen; cell-free CFP-Ran/YFP-importin-beta FRET ratio; inhibition, % (test concentration not listed); hit rate 1.1% among 300,000; AID 2216;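 active = most replicates above 15%; inconclusive = exactly half above 15%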;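 also: 0% = DMSO wells and 100% = Ran loaded with GDP instead of GTP; wells of about 40 µL received 100 nL stock; the first replicate is given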
The depositor's hits bear a star; ? = inconclusive; . = not tested or not shown.

Compound	Beta apoptosis	UCH37 inh	B2AR ag	LANA-H2B inh	T cruzi inh	RanGTP-Impb inh	A1 inh	Calb FLC
COc1ccc(CCNC(=O)c2cc3c(=O)n4cccc(C)c4nc3n(Cc3ccco3)c2=N)cc1OC	105.0*	.	23.7	9.6	39.2	53.4*	-2.4	-3.9
COc1ccc(C(c2nnnn2C(C)(C)C)N2CCN(c3nc4ccccc4s3)CC2)cc1 (stereo unspecified)	.	-2.1	6.0	.	20.3	-3.0	.	13.0
CSc1ncc(CN2CCN(CC=C(C)C)C(CCO)C2)cn1 (stereo unspecified)	-2.7	0.7	-8.2	-6.8	43.2	1.1	-0.8	-24.6
O=C(COC(=O)CCC(=O)c1cccs1)Nc1ncc(Cl)cc1Cl	-1.8	-0.9	1.9	-3.0	-16.3	2.1	-0.9	13.4
C=CCSC1=NNC(c2ccc(C(C)(C)C)cc2)=NN1	-1.5	1.4	-1.6	-0.9	9.9	-0.9	-0.4	3.9
Cc1c(N=C/C=C/c2ccccc2)cnn1C	0.7	12.5	3.2	-6.1	-34.2	0.9	0.1	18.6
O=C(O)C1CCC(=O)N1Cc1ccc(F)cc1 (stereo unspecified)	0.9	1.0	2.8	3.0	1.9	0.0	-0.6	2.7
CCN(CC)S(=O)(=O)c1ccc(OC(C)C)c(NC(=O)C2=COCCO2)c1	5.2	.	-12.9	3.7	10.6	-0.9	0.8	-2.0
O=S(=O)(NC1=NCCCCC1)c1ccc(F)cc1	-0.6	4.2	-4.3	-2.8	15.9	-3.3	0.3	-0.8
Cn1c(SCC#N)nnc1-c1ccc2c(c1)OCO2	-6.6	-0.4	1.6	-3.6	-8.7	4.9	0.0	-11.4
COc1cc(S(=O)(=O)NCc2ccccc2)ccc1F	.	1.0	-0.5	0.4	-10.7	5.1	0.5	2.0
Cc1ccc(-c2nn(C)c(=O)c3ccccc23)cc1CNC(=O)/C=C/c1ccccc1	3.4	0.2	-2.8	8.7	15.8	-1.0	-0.1	8.5
COCCCn1nnnc1SCC(=O)N1CCN(C(=O)c2ccco2)CC1	-3.3	2.6	12.3	0.7	8.4	-0.4	0.3	-16.3
CCOc1ccccc1NC(=O)C(NCCN(C)C)c1ccccc1 (stereo unspecified)	-5.7	3.5	-7.8	-2.2	20.6	?	0.5	0.4
O=C(NC(=S)N(CC1CCC1)CC1CCCO1)c1cccc([N+](=O)[O-])c1 (stereo unspecified)	27.9	1.0	-2.8	-3.0	3.2	2.7	0.5	1.1
CC(O)Cc1cn([C@@H](CCCCNC(=O)OC(C)(C)C)C(=O)N2CCN(C(=O)OC(C)(C)C)CC2)nn1 (stereo partly specified)	-2.0	4.4	0.7	3.3	-11.6	-3.9	-0.6	-10.8
COc1ccc(N2CCN(Cc3nnnn3C3CCCCC3)CC2)cc1	-2.0	0.3	4.3	-4.9	14.6	-0.1	0.2	4.3
COc1cc(C(=O)N2CCN(C(=O)c3ccco3)CC2)c([N+](=O)[O-])cc1OC	-3.7	3.1	7.4	-3.1	-1.8	-1.1	0.1	3.1
CCc1cccc(C)c1NC(=O)CCCn1c(=O)c2cccn2c2cccnc21	-1.4	-9.9	-4.3	4.3	9.2	6.9	-1.0	-1.5
O=C(c1cc2cc(Cl)ccc2o1)N1CCCC1	-2.4	1.2	-12.2	2.5	-9.9	3.2	-0.6	10.1
CC(C)N1C(=O)CCC1C(=O)O (stereo unspecified)	.	2.1	8.3	-0.8	-26.6	-0.4	0.1	-20.4
Cn1c(CCNC(=O)C(C)(C)C)nc2ccccc21	-4.9	0.1	2.0	0.1	5.9	-2.1	-0.6	-8.7
CC1=C[C@H](C)[C@H](c2c(F)cccc2Cl)CC1=O	-6.3	5.5	-1.6	2.0	-12.9	1.6	-0.3	-2.6
O=C(CSc1nnc(CNC(=O)c2ccco2)o1)Nc1cccc(Cl)c1	-3.1	-0.6	5.6	0.8	-14.4	1.7	-1.1	-7.3
CC(C)CCc1noc(CN(C)CCC2CCOCC2)n1	1.8	-0.3	-4.3	-2.9	39.7	1.1	-0.4	-3.4
C=CCn1c(N)c(C(=O)N2CCN(C)CC2)sc1=S	3.5	12.2	18.9	2.6	-8.2	8.3	0.7	10.9
O=C(O)c1cc([N+](=O)[O-])ccc1NCCO	-0.7	10.1	2.6	2.4	4.3	3.3	0.2	-1.8
O=C(N/N=C/c1coc2ccccc2c1=O)c1ccccc1	-6.5	.	15.2	1.1	-8.4	0.6	0.6	13.0
O=C(Cn1c(=O)oc2cc(S(=O)(=O)N3CCCC3)ccc21)N1CCN(c2ccccc2F)CC1	-1.8	9.9	-2.7	1.8	-0.5	3.1	-0.2	5.2
Cc1ccc2nsnc2c1S(=O)(=O)N1CCCC1C(=O)O (stereo unspecified)	.	1.2	1.0	0.4	8.5	1.2	1.8	9.3
O=C(Cc1ccc2c(c1)OCCO2)N1CCN(S(=O)(=O)c2ccccc2C(F)(F)F)CC1	-2.0	2.4	1.2	-0.4	1.9	-2.6	0.4	-3.9
O=C(CSc1ncnc2c1cnn2Cc1ccccc1)Nc1ccc2c(c1)OCCO2	1.1	4.9	0.8	-2.8	2.8	6.7	-1.3	1.5
Cn1c(CN2CCOCC2)nnc1SCC(=O)Nc1ccc([N+](=O)[O-])cc1O	1.7	6.2	3.3	1.4	-32.6	5.4	-0.1	16.3
COc1ccc(N2CCN(C(=O)COc3ccc4c(C)c(C)c(=O)oc4c3C)CC2)cc1	1.0	-6.0	-9.4	2.1	-10.7	2.2	-0.5	18.7
CCN(CC)CCNC(=O)c1ccc2c(c1)ncn2C1CCCCC1	-3.0	2.8	-9.7	-0.5	4.8	2.7	-0.2	-0.4
CC(=O)Nc1ccc(C=C(C(C)=O)C(C)=O)cc1	0.7	4.1	3.8	-2.3	1.1	-1.0	1.0	-4.4
Nc1no[n+]([O-])c1-c1ccccc1	-2.4	0.2	0.4	2.4	0.4	3.5	-0.5	1.9
CC1SC(=S)N(c2ccc(N(C)C)cc2)C1=O (stereo unspecified)	-6.8	5.2	25.7	5.6	-3.8	0.2	-0.4	-4.2
O=C(Nc1nnc(-c2ccccc2Cl)o1)c1cccnc1	3.0	3.4	-10.8	-1.3	-24.1	0.5	-5.5	10.2
O=C(COC(=O)/C=C/c1ccccc1)NCc1ccc(Cl)cc1	-12.8	-1.3	-2.1	-9.3	-3.6	1.2	-1.2	1.7
N/N=c1\sc2ccccc2n1-c1ccccc1	-2.7	.	3.0	0.0	-7.8	-0.6	0.5	-2.4
CCOC(=O)[C@H]1[C@H]2COc3cc(OC)ccc3[C@@H]2N2C(=O)c3ccc(F)cc3NC(=O)[C@@]12C	3.8	-0.4	1.3	-4.3	.	.	-0.1	.
CCNc1nc(NCC)n2c(SCC(=O)Nc3ccccc3[N+](=O)[O-])nnc2n1	-4.9	2.6	-3.0	2.2	-9.9	-3.1	-1.3	26.0
C/C(=N\NC(=O)c1nnn(-c2nonc2N)c1-c1ccc2c(c1)OCO2)c1ccc(F)cc1	-3.5	.	8.4	4.0	14.1	-5.3	0.9	-7.0
O=C(c1ccc(=O)[nH]n1)N1CCc2ccccc2C1	-6.6	5.3	-2.3	3.4	-3.8	-0.2	-0.5	15.6
O=C(CNC(=O)Cc1ccccc1)NCc1cccc(C(F)(F)F)c1	-4.8	1.2	4.5	1.3	-9.3	-3.5	0.3	-1.4
CCN(CC(=O)Nc1cc(OC)ccc1OC)Cc1nc2ccccc2c(=O)[nH]1	-5.9	-0.8	-7.3	-0.8	-1.3	-4.9	0.5	-0.7
Cc1sc2c(c1C)c(=O)n(-c1ccccc1)c1nncn21	1.6	3.2	0.9	-5.4	-13.6	-0.7	0.0	9.6
O=C(COC(=O)c1cccc(Cl)c1Cl)NCc1cccs1	2.0	1.8	-2.7	-3.5	.	.	0.6	.
CCCCNC(=O)CSc1nc2ccccc2c(=O)n1CC1COc2ccccc2O1 (stereo unspecified)	6.6	-1.6	-3.6	-0.4	8.2	-1.9	-0.6	4.7

Additional structures follow.
Compound	Beta apoptosis	UCH37 inh	B2AR ag	LANA-H2B inh	T cruzi inh	RanGTP-Impb inh	A1 inh	Calb FLC
O=C(CSc1nnnn1Cc1ccccc1)Nc1cccc(F)c1	-8.5	4.0	-4.1	-14.7	6.4	1.3	0.4	12.0
COc1ccc(OC)c(NC(=O)c2cc3ccccc3o2)c1	-7.2	-9.0	12.4	11.5	6.0	1.5	-2.7	-7.4
OCCC1CN(Cc2ccc3nsnc3c2)CCN1CCc1ccccc1 (stereo unspecified)	3.1	-0.1	-1.1	2.0	16.9	.	0.4	.
O=C(c1ccco1)N1CCN(C(=O)C2(S(=O)(=O)c3ccc(Cl)cc3)CC2)CC1	1.2	1.0	0.6	-0.5	-0.7	7.0	0.0	-1.3
CCN(CC)C(=O)/C(=C\c1cccc([N+](=O)[O-])c1)NC(=O)c1ccco1	-7.3	5.9	-3.1	4.4	-4.5	?	0.5	0.5
CCOc1[nH]n(-c2ccccc2)c(=O)c1C=NCc1ccncc1	-3.9	3.6	-15.3	1.2	-15.5	2.1	0.4	-6.7
c1ccc(Cn2nnc3c(N4CCCC4)ncnc32)cc1	-1.5	3.5	-11.6	5.0	-8.8	3.2	1.4	-15.2
Cc1ccc(C)c2nc(Cl)c(C3NC(=O)c4ccccc4N3)cc12 (stereo unspecified)	7.9	-2.3	12.2	3.1	25.6	4.5	0.1	-36.5

Compounds as they come. Share with any hit: about 4.3%.
